Compound activity as filed in PubChem BioAssay.
VACV Venus inh: vaccinia inhibition (Venus reporter); Vaccinia virus Venus reporter expression, fluorescence; Potency, µM (top dose mostly 36.5 µM), without a hit: at the highest dose activity change, negative = inhibition, hits mostly inhibitors; actives 0.46% (n = 330,000); active means well fitted inhibition curve with a large enough effect; inconclusive means small, poorly fitted or top-dose-only effect; inactive means no such curve, though single readings can be large or run the other way; tested in A549 cells; note: nearly all actives have a fitted effect of over 30% in size; inactives centre near -10
Vaccinia mCherry: inhibitors of vaccinia virus infection (mCherry reporter signal) | Vaccinia virus mCherry reporter infection, fluorescence; about a quarter of the inactives have no number | Potency, µM (highest dose often 36.5 µM), inactives show at the highest dose activity change, negative = inhibition, hits mostly inhibitors | actives 0.63% (n = 310,000) | AID 720579; active = well fitted inhibition curve with a large enough effect; inconclusive = small, poorly fitted or top-dose-only effect; inactive = no such curve, though single readings can be large or run the other way; tested in A549 cells; note: nearly all actives have a fitted effect of over 35% in size; inactives centre near -10
* marks the source's active call; other numbers are inactive results; i = inactive; u = inconclusive; x = no result given; [ ] = dose if it differs, or a comment. % is set by controls: 0 for no effect and ±100 for the full control effect; potency is the fitted concentration of half-maximal effect. Rows were taken by chance, and some 0.88% of all compounds hit somewhere here.

SMILES	VACV Venus inh	Vaccinia mCherry
Cc1cccc(NCC(=O)N/N=C\c2cccn2C)c1	0.8%	u
Oc1ccc(C(=S)N2CCCCC2)cc1	11.4%	x
Cc1cc(C)c(NC(=O)CSCc2c(C)noc2C)c(Cl)c1	-18.7%	-7.2%
CC(=O)Nc1nc(C)c(Cc2ccccc2)c(=O)[nH]1	-5.4%	x
CC(NC(=O)c1cccc(S(=O)(=O)N2CCN(Cc3ccccc3)CC2)c1)c1ccc(Br)cc1 (stereo not drawn)	-18.4%	-18.3%
Cc1csc(-c2nc3ccccc3n2C(C(=O)NC(C)(C)C)c2ccccc2)c1 (stereo not drawn)	-6.3%	-5.6%
Cc1ccc(C)c(NC(=O)C(C)CC2COCCO2)c1 (stereo not drawn)	-5.8%	-5.2%
C[C@H]1CN([C@@H](C)CO)C(=O)c2cc(-c3cccnc3)cnc2O[C@H]1CN(C)Cc1ccc(Oc2ccccc2)cc1	-27.6%	-7.2%
CC(=O)Nc1ccc(SC[C@H](Cc2ccccc2)N2CCN(CCc3ccccc3)CCC2=O)cc1	-17.5%	-32.7%
Cc1cc(C)nc(SCC(=O)N(C)CC(=O)Nc2c(Cl)cccc2Cl)n1	1.1%	-13.4%
CNC(=O)CCCN1C(=O)c2cccnc2Sc2ccccc21	-13.8%	-10.7%
CCC(CC)C(=O)NCc1ccccc1Cl	2.6%	-10.6%

Going on with the list:
SMILES	VACV Venus inh	Vaccinia mCherry
OC(CN1CCN(Cc2ccccc2)CC1)Cn1c2ccccc2c2ccccc21 (stereo not drawn)	-22.6%	i
O=C1N[C@@H](Cc2ccccc2)C(=O)N2[C@H]3Nc4ccccc4[C@@]3([C@]34C[C@H]5C(=O)N[C@@H](Cc6ccccc6)C(=O)N5[C@H]3Nc3ccccc34)C[C@@H]12	-26.5%	u
Cc1c(Cl)cccc1NS(=O)(=O)c1ccc2c(c1)C1C=CCC1C(c1ccc(C(=O)O)cc1)N2 (stereo not drawn)	-5.2%	4.2%
CCCCn1c(CCc2ccccc2)nc2cc3[nH]c(=O)c(C(C)C)nc3cc21	u	u
CN(C)c1ccc(/C=N/NC(=O)c2cccc(N3CCCC3=O)c2)cc1	0.2%	i
COc1ccc(NC(=O)CSc2nc3ccccc3nc2N2CCCC2)c(OC)c1	-11.4%	i
COc1ccncc1-c1ccccc1C1=CC(=O)CC(C)(C)C1=O	-16.0%	-15.9%
CCCc1ccc(OCc2ccc(C(=O)N3CCCC3)o2)cc1	-13.9%	38.2%[activator]
CCOc1ccccc1NC(=O)N1CCCc2ccccc21	-5.9%	i
CCOc1ccc(NC(=O)c2cc(Cl)nc3ccccc23)cc1	-26.9%	-3.8%
COc1ccc(C(NC(=O)c2ccc(-c3ccccc3)cc2)c2ccccc2)cc1 (stereo not drawn)	-2.5%	-13.2%
O=C(COC(=O)c1cccc(F)c1)Nc1cccc(S(=O)(=O)N2CCOCC2)c1	-0.3%	-10.4%

Further structures.
SMILES	VACV Venus inh	Vaccinia mCherry
CC(C)CCN1CCC(n2nccc2NC(=O)C2CCOC2)CC1 (stereo not drawn)	-8.6%	i
Cc1nc2c(OCc3ccc(Cl)cc3Cl)cccn2c1N(C)Cc1cccs1	-18.5%	8.8%
CCOC(=O)N1CCC(c2cc(=O)n3[nH]ccc3n2)CC1	0.4%	i
COc1ccc(N2CCN(c3nc(NCCc4ccc(OC)c(OC)c4)nc(OC)n3)CC2)cc1	u	-27.5%
O=C(NCCCC(=O)N1CCOCC1)c1cccnc1	-12.7%	x
COc1ccc(N2CCN(C(=O)C3CCN(S(=O)(=O)c4cn(C)cn4)CC3)CC2)cc1	-7.7%	-10.7%
CCNc1nc2nonc2nc1NCC	-15.7%	x
O=C(Cn1nc(C(F)(F)F)c2c1CCC2)Nc1ccc(Cl)cc1	-24.5%	u
CCOC(=O)C1CCN(C(=O)c2cnn3c(C)cc(C)nc23)CC1	-8.4%	-19.2%
O=C1CC(C(=O)Nc2ccc(C(=O)O)cc2)C(c2ccccc2)O1 (stereo not drawn)	-15.4%	x
O=C(CSc1nc2ccccc2n1CC(=O)N1CCCC1)Nc1nccs1	-5.2%	-12.4%
Cc1cccc(-c2noc(CCCC(=O)NCc3ccco3)n2)c1	-9.9%[7.34 µM]	-17.3%[7.34 µM]

(more compounds)
SMILES	VACV Venus inh	Vaccinia mCherry
COc1ccc2c(c1OC)C(C1c3c(cc4c(c3OC)OCO4)CCN1C)OC2=O (stereo not drawn)	-18.7%	-10.7%
CC(C)n1nnnc1C1c2ccccc2C(=O)N1Cc1cccc(F)c1 (stereo not drawn)	-6.2%	-3.5%
Cc1c(NC(=O)c2cc3ccccc3oc2=O)c(=O)n(-c2ccccc2)n1C	-7.8%	i
COc1ccc(S(=O)(=O)NCCC(=O)NCc2cccs2)cc1	-3.3%	i
O=C(NCc1ccccc1OC(F)(F)F)C1CCC(=O)N(Cc2ccccn2)C1 (stereo not drawn)	-8.5%[7.34 µM]	-6.4%[7.34 µM]
CCCc1nc2ccccc2c(=O)n1-c1ccc(O)cc1	-15.5%	-11.1%
C=Cc1ccc(Cn2c(C(=O)O)c(CNC3CCCCC3)c3ccc(OC)cc32)cc1	-6.1%	-9.6%
CCN(CC)C(=O)C1=C(C)N(Cc2ccc(C(C)(C)C)cc2)C(=O)C(CC(=O)NCC2CCCCC2)C1 (stereo not drawn)	u	u
CC(=O)c1ccc(F)c(-c2cc(C)cc3c2OC(CNC(=O)c2ccnn2C)C3)c1 (stereo not drawn)	u	-12.1%
COc1ccc(/C(C)=N/NC(=O)c2nc(C)cc(C)n2)cc1	-10.1%	-14.5%
CCCNC(=O)C1CC(=O)N(c2ccc(OCC)cc2)C1 (stereo not drawn)	-17.4%	i
CCOC(=O)c1cc2ccccc2n1CC(=O)c1ccccc1	-1.4%	-6.5%

More results follow.
SMILES	VACV Venus inh	Vaccinia mCherry
O=C(COc1ncnc2cc([N+](=O)[O-])ccc12)N(CCc1ccccc1)Cc1ccccc1	-16.7%	-14.5%
COc1cc(C)nc(NC(=S)N(C)C(=O)c2ccccc2)n1	0.0%	7.7%
O=C(CN(c1ccc(Br)cc1)S(=O)(=O)c1ccc(Cl)c([N+](=O)[O-])c1)NCC1CCCO1 (stereo not drawn)	-10.2%	-23.7%
COc1ccc(-c2csc3ncnc(N4CCN(c5ccccc5OC)CC4)c23)cc1	-2.8%	i
CC1CN(CC(=O)Nc2ccc([N+](=O)[O-])cc2Br)CC(C)O1 (stereo not drawn)	-6.4%	i
Oc1cc2c(cc1CN1CCN(c3ncccn3)CC1)OCO2	-1.1%	-5.0%
CCn1cc(CNCc2cn(C)nc2-c2ccc(C3CCCCC3)cc2)cn1	-21.7%	-16.9%
COc1cc(N2C(=O)CC3(CCCC3)CC2=O)cc(OC)c1OC	-6.4%	-8.8%
O=C(COc1ccc2c(c1)OCO2)Nc1ccc2c(c1)oc1ccccc12	-21.2%	x
S=c1[nH]nc(CSCCOc2ccccc2)o1	0.0%	i
Cc1ccccc1CNC(=O)Cn1cnc(S(=O)(=O)N2CCCC2)c1	0.0%[7.34 µM]	i[7.34 µM]
CC(C)n1nc(C(=O)Nc2nc3ccccc3[nH]2)c2ccccc2c1=O	-7.2%	3.2%

The list continues.
SMILES	VACV Venus inh	Vaccinia mCherry
COC(=O)Nc1ccc(S(=O)(=O)N2CCC(C(=O)N3CCCCC3C)CC2)cc1 (stereo not drawn)	-10.8%	i
CCCC(=O)Nc1ccc(S(=O)(=O)N2CCC(c3nc4ccccc4[nH]3)CC2)cc1	-29.2%	u
Cc1ccc(N/N=C/C=C/c2ccco2)cc1	1.6%	-9.9%
Cc1ccc(C23CC4CC(CC(NC(=O)NCCN(C)C)(C4)C2)C3)cc1	u	-20.6%
O=C(c1ccc2c(c1)N(Cc1ccc(F)cc1)C(=O)c1ccccc1S2(=O)=O)N1CCN(Cc2ccccc2)CC1	-21.6%	-20.8%
CCOC(=O)c1c(C)[nH]c(C)c1S(=O)(=O)NCC(=O)Nc1cccc(C(F)(F)F)c1	-2.7%	-9.2%
O=C(Nc1ccccc1)c1ccc(-c2ccccc2)s1	-29.8%	u
COC(=O)c1c(NC(=O)CSc2nncs2)sc2c1CCCCC2	-22.7%	u
O=C(NCCn1cccc1)c1cccc2ccccc12	-9.8%	i
O=C(NCCN1CCN(c2ccccc2)CC1)Nc1ccc(Cl)cc1	-16.8%	u
CS(=O)(=O)NCCCCNc1ccc(C(F)(F)F)cc1[N+](=O)[O-]	-7.8%	-6.6%
COc1cc(NC(=S)NCCCN2CCOCC2)cc(OC)c1OC	2.5%	i

The results go on:
SMILES	VACV Venus inh	Vaccinia mCherry
CN1C=CC(=C[N+](=O)[O-])N(C)C1=O	3.2%	i
O=C(COc1ccc(Cl)cc1)OCc1cc(=O)n2nc(C3CCCCC3)sc2n1	5.6%	-6.8%
OC(c1cc(-c2ccc(C(F)(F)F)cc2)nc(C(F)(F)F)c1)C1CCCCN1 (stereo not drawn)	11.2µM*	u
NC(=O)C1CCN(C(=O)CC(c2ccccc2)c2ccccc2)CC1	-9.9%	-22.0%
CCOc1ncccc1C(=O)OCc1ccc(C(=O)OC)cc1	u	-6.4%
Cc1ccc(NC(=O)c2ccc(OCc3c(C)noc3C)cc2)cc1C	-27.7%	-18.8%
Cc1[nH]n(-c2ccccc2)c(=O)c1C(C[N+](=O)[O-])c1ccc(Cl)cc1 (stereo not drawn)	-2.8%	i
COc1ccc(/C=C2/Sc3ccc(C(=O)N4CCc5ccccc5C4)cc3NC2=O)cc1	-8.6%	-19.3%
CC(COS(N)(=O)=O)Cc1ccc(C(F)(F)F)cc1 (stereo not drawn)	-21.4%	-15.8%
CC(OC(=O)CNC(=O)c1ccc(Cl)c([N+](=O)[O-])c1)C(=O)NCc1ccco1 (stereo not drawn)	-2.3%	i
CCCCCN(C(=O)NC(=O)NCCCC)S(C)(=O)=O	-6.2%	-14.0%
OCC[C@@H]1C[C@H](O)[C@@H](O)[C@@]2(OCCCc3cc(C(F)(F)F)ccc32)O1	-3.3%	5.6%

Next records follow:
SMILES	VACV Venus inh	Vaccinia mCherry
CC(=O)c1ccc(S(=O)(=O)NCC(=O)N2CCN(C/C=C/c3ccccc3)CC2)cc1	-29.0%	-10.9%
O=C(Cn1cncn1)NCC1Cc2cc(-c3ccsc3)cc(Cl)c2O1 (stereo not drawn)	-13.0%	-14.1%
O=C1C=CN2CCOCC2C1 (stereo not drawn)	1.8%	-13.5%
Cc1cc(OCC(=O)NCCc2c[nH]c3ccccc23)c2c(C)c(C)c(=O)oc2c1	-2.2%	-17.1%
CC(=O)Nc1ccc(NC(=O)C2Cc3c(-c4cccc(NC(C)=O)c4)ccnc3O2)cc1 (stereo not drawn)	5.7%	-7.0%
Cc1cc(=O)[nH]c(N/N=C/CCc2ccccc2)n1	2.1%	-2.6%
COC(=O)C1=C(C)N(CCCC(=O)O)C(=O)NC1c1cccs1 (stereo not drawn)	-12.3%	i
O=C(CSc1ccc2nnc(-c3ccccn3)n2n1)NCC1CCCO1 (stereo not drawn)	-2.3%	i
COc1ccc(CCNC(=O)CSc2n[nH]c(N)n2)cc1OC	7.1%	-1.0%
Cc1oc(-c2cccc(Cl)c2)nc1CS(=O)(=O)CC(=O)NC(C)CCc1ccccc1 (stereo not drawn)	-18.1%	-13.3%
COc1cc(OC)c(NC(=O)c2c(C)oc3ncnc(N4CCCCC4)c23)cc1Cl	-6.4%	-18.0%
Nc1ccc(NC(=O)CCN2CCOCC2)cc1	7.0%	i

More entries
SMILES	VACV Venus inh	Vaccinia mCherry
COc1cccc(-n2c(SCC(=O)Nc3c(C)cc(C)cc3C)nc3c([nH]c4ccccc43)c2=O)c1	-2.8%	3.9%
CCCCN(Cc1ccccc1)S(=O)(=O)c1c(N)n(C)c(=O)n(C)c1=O	-13.5%	-19.1%
CNC(=S)N1N=C(c2ccc(Br)cc2)CC1c1ccc(OC)cc1 (stereo not drawn)	-18.4%	-26.9%
Cc1nn(-c2ccc(F)cc2)c(Cl)c1C(=O)N(C)CC(=O)Nc1cccc(F)c1	-25.2%	-10.9%
O=C(COc1ccccc1Cl)NCCNC(=O)c1ccccn1	10.7%	-4.7%
Cc1ccc(/C=C/C(=O)Nc2ccccc2C(N)=O)cc1	-13.6%	-1.8%
O=C(O)c1ccc(CSc2nnc(-c3ccccc3)n2-c2ccccc2)cc1	1.8%	-11.5%
COc1ccc2c(c1OC)C(=O)N1c3ccccc3C(=O)N(Cc3ccco3)C21 (stereo not drawn)	-7.9%	-1.0%
O=S(=O)(CS(=O)(=O)Oc1ccccc1)Oc1ccccc1	-1.2%	-13.6%
Cc1ccc(NC(=O)CS(=O)CC(=O)Nc2cnc3ccccc3c2)cc1Cl (stereo not drawn)	-13.6%	-5.9%
Clc1cccc(-c2nc3c4ccccc4ccn3c2Cc2ccccc2)c1	8.7%	3.4%
O=C(CCCOc1ccc(Cl)cc1Cl)Nc1ncccn1	-1.8%[7.34 µM]	i[7.34 µM]
COC(=O)[C@H](C)NC(=O)NCc1ccccc1F	-12.7%	x
CCC(C)C(NC(=O)c1ccccc1NC(=O)c1ccc(OC)cc1)C(=O)NCCCn1ccnc1 (stereo not drawn)	-6.1%	-3.9%
COc1ccc(CN2CCNC(=O)C2CC(=O)NCCCC2CCCC2)c(F)c1 (stereo not drawn)	-15.7%	-7.9%
